High-throughput results deposited in PubChem by National Center for Advancing Translational Sciences (NCATS).
HP1b chromo inh – HP1-beta chromodomain-methylated histone interaction inhibition; 390,000 compounds, 0.56% hits; Potency, µM (doses to about 114 µM), inactives show top-dose activity change, negative = inhibition, hits mostly inhibitors; AlphaScreen HP1-beta / biotin-H3K9me3 peptide binding; note: nearly all actives have a fitted effect of over 70% in size; inactives centre near 23
Target sequence (P83916 whole entry, looked up): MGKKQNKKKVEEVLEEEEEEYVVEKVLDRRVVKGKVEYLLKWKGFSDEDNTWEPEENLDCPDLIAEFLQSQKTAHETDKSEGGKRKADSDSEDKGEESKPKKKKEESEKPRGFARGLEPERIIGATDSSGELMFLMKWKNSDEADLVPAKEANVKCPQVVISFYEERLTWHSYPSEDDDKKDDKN
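AlphaScreen: HP1-beta (50 nM) preformed 30 min with biotin-H3(1-18)K9me3 peptide (50 nM) in PBS pH 7.4, 0.01% Tween-20. Compound added for 30 min at RT, then streptavidin donor/nickel chelate acceptor beads (10 ug/mL) for 30 min.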
G9a block – inhibitors of human histone lysine methyltransferase G9a. Potency, µM (doses to about 102 µM), without a hit: at the highest dose activity, negative = inhibition, hits mostly inhibitors. Q96KQ7. 350,000 compounds, 8.8% hits. G9a H3K9 monomethylation, AlphaScreen, 2 h; note: % is set by controls: 0 for no effect and ±100 for the full control effect; nearly all actives have a fitted effect of over 75% in size
Target sequence (Q96KQ7 913-1193 limits assumed): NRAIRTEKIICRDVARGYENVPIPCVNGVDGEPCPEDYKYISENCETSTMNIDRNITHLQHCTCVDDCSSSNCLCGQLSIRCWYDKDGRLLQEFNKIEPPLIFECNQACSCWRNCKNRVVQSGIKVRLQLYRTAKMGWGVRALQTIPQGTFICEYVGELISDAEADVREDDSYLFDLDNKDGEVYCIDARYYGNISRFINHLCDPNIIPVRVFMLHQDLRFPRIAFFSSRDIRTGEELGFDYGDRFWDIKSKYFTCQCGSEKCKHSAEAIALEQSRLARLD
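Methyltransferase reactions run at room temperature for 2 h (20 nM enzyme, 500 nM biotin-H3K9 peptide, 20 uM SAM) after a 15 min compound preincubation; product detected by AlphaScreen beads and anti-H3K9me1 antibody.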
POLI inh – blocks human DNA polymerase iota activity; Q9UNA4; Potency, µM (doses to about 115 µM), inactives show at the highest dose activity, negative = inhibition, most hits filed as inhibitors; Pol iota fluorescent replication assay, 10 min; 390,000 compounds, 1% hits
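Fluorescent replication assay read twice, at 0 min and 10 min after adding 50 nM (final) substrate. Enzyme (10 nM) and compounds were first incubated 15 min at room temperature; enzyme-free buffer wells were negative controls.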
GLS inhibitor – inhibitors of human glutaminase (GLS); Potency, µM (series often up to 45.5 µM), for inactives: at the top dose activity change, negative = inhibition, most hits filed as inhibitors; 410,000 compounds, 0.21% hits; GLS enzymatic activity, qHTS titration; note: % is set by controls: 0 for no effect and ±100 for the full control effect
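Compounds were pin-transferred onto hKGA, after which L-glutamine (1 mM solution) and a detection mix of glutamate oxidase, HRP and Amplex Red were added. Initial and 30 min RT fluorescence reads were collected.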
Pin1 inh – blocks the human prolyl isomerase Pin1 | Q13526 | Pin1 FP peptide displacement, HiFluor488, 10 min | Potency, µM (series often up to 115 µM), without a hit: at the top dose activity, negative = inhibition, usual class: inhibitors | 390,000 compounds, 0.009% hits; active = well fitted inhibition curve with a large enough effect in the polarisation, with a control signal flat, not every such curve was filed as active; inconclusive = small, poorly fitted or top-dose-only effect, or effect the other way, or a change in a side signal; inactive = no such curve, though single readings can be large or run the other way; the % refers to the polarisation; note: % is set by controls: 0 for no effect and ±100 for the full control effect
Target sequence (Q13526 whole entry, looked up): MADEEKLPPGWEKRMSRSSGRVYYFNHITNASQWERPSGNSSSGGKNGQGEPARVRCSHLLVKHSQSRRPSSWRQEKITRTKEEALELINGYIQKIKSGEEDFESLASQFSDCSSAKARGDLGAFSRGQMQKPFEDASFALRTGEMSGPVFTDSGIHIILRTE
JMJD2A Tudor – JMJD2A Tudor domain (human) inhibition. Potency, µM (highest dose often 114 µM), without a hit: top-dose activity change, negative = inhibition, hits mostly inhibitors. 390,000 compounds, 4.4% hits. O75164. AlphaScreen JMJD2A-Tudor / H3K4me3 peptide binding. AID 504339; note: % is set by controls: 0 for no effect and ±100 for the full control effect; nearly all actives have a fitted effect of over 50% in size
BLM inh – blocks DNA unwinding by human BLM helicase | recombinant BLM DNA unwinding, fluorescence dequenching | Potency, µM (highest dose often 56.1 µM), for the others: at the highest dose activity change, negative = inhibition, actives largely listed as inhibitors | 350,000 compounds, 0.2% hits | AID 2528;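 note: plate controls were vehicle for no effect and no enzyme for full effect; nearly all actives have a fitted effect of over 35% in size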
Tb PGK inh – blocks T. brucei phosphoglycerate kinase | P07378 | PGK/GAPDH coupled, Kinase-Glo luminescence, 60 min | Potency, µM (top dose mostly 57.5 µM), for inactives: top-dose activity change, negative = inhibition, hits mostly inhibitors | 380,000 compounds, 0.043% hits | AID 602233; note: % is set by controls: 0 for no effect and ±100 for the full control effect; nearly all actives have a fitted effect of over 60% in size
Target sequence (P07378 whole entry, looked up): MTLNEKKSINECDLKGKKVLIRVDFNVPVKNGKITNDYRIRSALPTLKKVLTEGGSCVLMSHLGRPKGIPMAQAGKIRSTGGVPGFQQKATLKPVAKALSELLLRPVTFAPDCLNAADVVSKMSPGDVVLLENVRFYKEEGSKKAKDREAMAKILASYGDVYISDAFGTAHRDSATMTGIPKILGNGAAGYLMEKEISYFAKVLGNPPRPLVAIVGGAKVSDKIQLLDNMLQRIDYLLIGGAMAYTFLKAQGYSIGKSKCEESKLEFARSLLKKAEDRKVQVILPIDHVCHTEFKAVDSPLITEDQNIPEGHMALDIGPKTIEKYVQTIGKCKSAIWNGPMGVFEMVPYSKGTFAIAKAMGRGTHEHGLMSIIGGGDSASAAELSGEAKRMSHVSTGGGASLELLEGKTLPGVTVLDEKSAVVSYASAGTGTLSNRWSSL
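Luminescent ATP detection (Kinase-Glo Plus) follows a 60-minute room-temperature incubation, with wells lacking PGK as controls. Buffer: 100 mM TEA (pH 7.6), 5 mM MgCl2, 0.01% Tween-20. Coupling enzyme GAPDH (100 nM final) supplies unstable 1,3-BPG in-well.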
* hit, by the source's call; i = inactive; u = inconclusive; x = no result given; [ ] = another dose, or the depositor's remark. Unless noted, calls come from the whole dose curve; as a rule, active = well fitted curve in the direction sought with a large enough effect; inconclusive = small, poorly fitted or top-dose-only effect, or another doubt; inactive = no such curve, though single readings can be large; an effect the other way counts as inactive or inconclusive. Potency is the fitted concentration of half-maximal effect.

SMILES	HP1b chromo inh	G9a block	POLI inh	GLS inhibitor	Pin1 inh	JMJD2A Tudor	BLM inh	Tb PGK inh
CCCCNC(=O)c1ccc(NS(=O)(=O)c2ccc3[nH]c(=O)[nH]c3c2)cc1	36%	71µM*	-3%	-4%	-9%	-3%	-19%	-4%
O=[N+]([O-])c1ccc2c(c1Nc1ccccc1)=NC1(CCCCC1)N=2	u	-1%[0.501 µM]	-4%	-4%	-1%	-24%[11.4 µM]	-15%	-1%
CCC1S/C(=N/N=C/c2ccco2)N(Cc2ccccc2C)C1=O (configuration not stated)	-5%	x	20%	1%	7%	5%	-11%	i
CCCCNC(=S)N/N=C1\CCCCc2ccccc21	0%	22%[59 µM]	6%	10%	0%	u	-5%	0%
COc1ccc(CNC(=O)C2CCCN(Cc3nc(-c4cccc(C)c4)oc3C)C2)cc1 (configuration not stated)	16%	-7%[59 µM]	21%	9%	2%	-35%	-4%	-8%
Fc1ccc(-c2nc(Nc3ccc(F)c(Cl)c3)nc3c2COc2ccccc2-3)cc1	-9%	u	4%	-2%	10%	u	-16%	-9%
COc1ccc(C(CNc2ccc(S(C)(=O)=O)cc2[N+](=O)[O-])N(C)C)cc1OC (configuration not stated)	-12%	4%	-16%	-6%	-3%	-13%	1%	-5%
Brc1ccc(-c2nc(N3CCN(c4ccccc4)CC3)c3ccccc3n2)cc1	39%	8%[59 µM]	u	-14%	0%	u	-6%	4%
COc1ccc(C(=O)NC(=S)Nc2ccc(CN3CCOCC3)cc2)cc1Cl	44%[activator]	40µM*	38%[activator]	35%[activator]	-1%	10%	-1%	6%
CCOC(=O)C1CCCN(c2oc(-c3ccc(F)cc3)nc2C#N)C1 (configuration not stated)	-3%	16µM*	5%	-6%	-1%	-10%	-1%	-3%
Cc1cccc(OCc2nc(C#N)c(N3CC(C)CC(C)C3)o2)c1 (configuration not stated)	u	40µM*	6%	-5%	4%	u	-10%	-11%
CCOc1ccc(N/C=C/C(=O)c2ccc(C)cc2)c([N+](=O)[O-])c1	-14%	-8%[2.33 µM]	5%	1%	3%	-30%	0%	-10%
COc1cc(Nc2ccc(S(=O)(=O)N3CCN(C)CC3)cc2[N+](=O)[O-])cc(OC)c1	u	50µM*	-7%	-8%	-6%	u	x	-2%
O=C(/C=C/c1ccoc1)c1ccccc1O	25%	u	13%	-7%	u	1%	-3%	-5%
Cc1nnc(SCc2ccc(Cl)cc2)c2cc3occc3n12	-31%	10µM*	-13%	-20%	5%	u	-6%	6%
Cn1c(SCC(=O)Nc2ccccc2F)nnc1-c1cccs1	36%	20%	70%[activator]	-7%	-3%	-5%	-4%	-1%
CCc1nn(CCCC(=O)N2CCN(c3cc(Cl)ccc3C)CC2)c(=O)c2cc3occc3n12	-18%	u	-4%	4%	33%[activator]	u	-9%	5%
COc1ccccc1N1CCN(Cc2nc(N)nc(Nc3ccc(C)cc3)n2)CC1	12%	u	7%	20%	-10%	-24%[57.1 µM]	-2%	i
COc1ccc2oc(=O)cc(CN3CCN(c4ccccc4F)CC3)c2c1	32%	0%[59 µM]	11%	-4%	7%	-26%	-4%	-2%
CC(CNCC1CCCO1)COc1ccccc1 (configuration not stated)	-1%	u	4%	14%	-4%	u	-5%	-2%

In another format: results already given
SMILES,HP1b chromo inh,G9a block,POLI inh,GLS inhibitor,Pin1 inh,JMJD2A Tudor,BLM inh,Tb PGK inh
CCC1S/C(=N/N=C/c2ccco2)N(Cc2ccccc2C)C1=O (configuration not stated),-5%,x,20%,1%,7%,5%,-11%,i
CCCCNC(=S)N/N=C1\CCCCc2ccccc21,0%,22%[59 µM],6%,10%,0%,u,-5%,0%
COc1ccc(CNC(=O)C2CCCN(Cc3nc(-c4cccc(C)c4)oc3C)C2)cc1 (configuration not stated),16%,-7%[59 µM],21%,9%,2%,-35%,-4%,-8%
Fc1ccc(-c2nc(Nc3ccc(F)c(Cl)c3)nc3c2COc2ccccc2-3)cc1,-9%,u,4%,-2%,10%,u,-16%,-9%
COc1ccc(C(CNc2ccc(S(C)(=O)=O)cc2[N+](=O)[O-])N(C)C)cc1OC (configuration not stated),-12%,4%,-16%,-6%,-3%,-13%,1%,-5%
Brc1ccc(-c2nc(N3CCN(c4ccccc4)CC3)c3ccccc3n2)cc1,39%,8%[59 µM],u,-14%,0%,u,-6%,4%
COc1ccc(C(=O)NC(=S)Nc2ccc(CN3CCOCC3)cc2)cc1Cl,44%[activator],40µM*,38%[activator],35%[activator],-1%,10%,-1%,6%
CCOC(=O)C1CCCN(c2oc(-c3ccc(F)cc3)nc2C#N)C1 (configuration not stated),-3%,16µM*,5%,-6%,-1%,-10%,-1%,-3%
Cc1cccc(OCc2nc(C#N)c(N3CC(C)CC(C)C3)o2)c1 (configuration not stated),u,40µM*,6%,-5%,4%,u,-10%,-11%
CCOc1ccc(N/C=C/C(=O)c2ccc(C)cc2)c([N+](=O)[O-])c1,-14%,-8%[2.33 µM],5%,1%,3%,-30%,0%,-10%
COc1cc(Nc2ccc(S(=O)(=O)N3CCN(C)CC3)cc2[N+](=O)[O-])cc(OC)c1,u,50µM*,-7%,-8%,-6%,u,x,-2%

Continuation.
SMILES	HP1b chromo inh	G9a block	POLI inh	GLS inhibitor	Pin1 inh	JMJD2A Tudor	BLM inh	Tb PGK inh
COCC(=O)Nc1sc2c(c1C(=O)OC)CCC(C)C2 (configuration not stated)	74%[activator]	-17%[12.7 µM]	13%	-7%	u	-6%	-8%	-4%
N#Cc1ccsc1NC(=O)CSc1nnc(-c2ccccc2)o1	-6%	u	u	2%	18%	-10%	-6%	-7%
Cn1c(=O)c2[nH]c(NCCCN3CCOCC3)nc2n(C)c1=O	23%	35µM*	5%	16%	-5%	u	-3%	i
CCn1c(SCC(=O)Nc2ccc(C)cc2)nnc1-c1ccccn1	12%	50µM*	31%[activator]	-4%	0%	u	-11%	1%
O=C(CSc1cccc2cccc(Cl)c12)OCC(=O)N1CCN(C(=O)c2ccco2)CC1	21%	79µM*	-15%	0%	u	-31%[57.1 µM]	-5%	i
CCc1nc(NCCCCCO)c2nnn(Cc3ccccc3F)c2n1	29%	13%[59 µM]	5%	-13%	5%	-8%	-8%	-10%
COc1cc(NC(=O)C(C)Oc2ccccc2)c(OC)cc1NC(=O)c1ccccc1 (configuration not stated)	-19%	x	5%	2%	-1%	u	-11%	-4%
COc1ccc(CCN(Cc2ccccn2)C(=S)Nc2cccc(SC)c2)cc1OC	-1%	10µM*	5%	3%	u	-23%	-10%	i
Cc1cccc(-n2c(SCC(=O)N3CCCC3)nnc2-c2ccccn2)c1C	19%	-33%[59 µM]	69%[activator]	5%	-2%	-26%	0%	-5%
Cc1c(Cl)cccc1-c1ccc(CNCCCSc2nnnn2C)o1	u	u	-27%	-4%	-13%	u	-7%	i
Cc1ccc(CN=c2c([N+](=O)[O-])nn(-c3cccc(Cl)c3)n2O)cc1	u	40µM*	-9%	4%	-2%	u	-8%	-1%
COc1ccc(F)cc1CN1CCN(c2ncnc3scc(-c4ccccc4)c23)CC1	-7%	-20%	17%	1%	7%	u	1%	-9%
O=S(=O)(c1ccc(Br)cc1)N1CCN(c2cc(-c3ccccc3)nc3ncnn23)CC1	14%	1%[12.7 µM]	-1%	-2%	4%	-4%	-2%	7%
COc1ccc(C2=NOC(C(=O)NCc3ccc(F)cc3)C2)cc1OC (configuration not stated)	22%	20%[12.7 µM]	46%[activator]	3%	7%	-12%	-7%	-1%
Cc1cc(NC(=O)C2CC(c3ccc(F)cc3)=NO2)no1 (configuration not stated)	25%	-4%	26%	0%	7%	-10%	-2%	3%
COc1ccc(Nc2nc(N)nc(CN3CCC(Cc4ccccc4)CC3)n2)cc1	16%	-3%	45%[activator]	0%	0%	u	4%	7%
CCC1CCCCN1C(=S)NC(=O)c1cccc([N+](=O)[O-])c1 (configuration not stated)	18%	45µM*	28%	6%	-7%	-36%	0%	-2%
COc1ccc(CNc2nc(SC)n[nH]2)cc1OC	22%	-5%[59 µM]	11%	11%	-12%	0%	0%	-9%
Cc1ccc(-c2csc(/C(C#N)=C/c3ccccc3Cl)n2)cc1	127%[activator]	31%[59 µM]	10%	-10%	u	68%[activator]	-6%	-8%
CCCC12CN3CC(C)(CN(C1)C3c1cn(C)c3ccccc13)C2=O (configuration not stated)	18%	-46%[59 µM]	0%	0%	9%	-30%	-2%	4%
O=C(NC1(C(F)(F)F)C(=O)Nc2c1c(=O)[nH]c(=O)n2-c1ccccc1)c1ccccc1Cl (configuration not stated)	9%	-6%[59 µM]	-10%	-15%	0%	-10%	3%	10%
COc1ccc(NC(=O)C/C(C)=N/NC(=O)c2cnccn2)cc1	38%	7.1µM*	33%[activator]	-5%	1%	-8%	0%	-14%
CC(C)c1ccc(CNc2nc(-c3ccco3)nn2C(=O)c2ccc([N+](=O)[O-])cc2)cc1	u	10µM*	10%	9%	-5%	u	0%	i
Cc1cccc(/C=N/n2c(-c3ccccn3)n[nH]c2=S)c1	x	1.4µM*	x	x	x	x	5%	x
O=C(NC(=S)Nc1ccccc1N1CCCCC1)c1ccco1	-27%	u	1%	17%	1%	-33%	-4%	-1%
Cc1oc(-c2ccccc2)nc1C(=O)N1CCN(c2ccc(F)cc2)CC1	u	-43%	100%[activator]	-7%	-1%	u	-5%	-8%
CC1(C)CC2CN(C(=O)Cc3ccccc3)C(C)(C2)C1 (configuration not stated)	14%	x	16%	-2%	-4%	u	-1%	x
COc1cc(NC(=O)c2ccccc2)c(OC)cc1NC(=O)CN1CCN(c2ccccn2)CC1	5%	8%[0.0925 µM]	17%	-2%	-2%	u	-12%	6%
CC(=O)/C(N)=N/Nc1cccc(Cl)c1	1%	50µM*	0%	13%	31%[activator]	-32%	-1%	i
CCOc1ccc2oc(=O)cc(CN3CCN(c4ccc(Cl)cc4)CC3)c2c1	45%[activator]	-1%[59 µM]	34%[activator]	3%	22%	-18%	-2%	i
C=CCSc1nc(Oc2ccccc2)c2sccc2n1	236%[activator]	328%[activator]	1%	4%	2%	144%[activator]	-11%	-4%

Some of these compounds in order of number of heavy atoms, low to high:
SMILES	HP1b chromo inh	G9a block	POLI inh	GLS inhibitor	Pin1 inh	JMJD2A Tudor	BLM inh	Tb PGK inh
CCC1CCCCN1C(=S)NC(=O)c1cccc([N+](=O)[O-])c1 (configuration not stated)	18%	45µM*	28%	6%	-7%	-36%	0%	-2%
CCC1S/C(=N/N=C/c2ccco2)N(Cc2ccccc2C)C1=O (configuration not stated)	-5%	x	20%	1%	7%	5%	-11%	i
COc1ccc2oc(=O)cc(CN3CCN(c4ccccc4F)CC3)c2c1	32%	0%[59 µM]	11%	-4%	7%	-26%	-4%	-2%

The list is partial; rates above refer to the full screens.
